# Vaccinia stage = blocks a specific stage of Vaccinia orthopoxvirus infection; Vaccinia-infected cells, mCherry/Venus stage reporter fluorescence; stronger effect = lower value; some inactives read as strong as hits; activity change (mCherry), % (concentration not given with the values); 0.01% of 89,000 active;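 active means mCherry past -33% and 40 or more points under the early reporter, replicates agreeing; inconclusive means past -33% without that gap or agreement; tested in A549 cells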;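 further: scaled between vehicle wells and reference inhibitor wells; 23 nL library stock went into each well; one replicate is shown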
# Vaccinia stage Venus = also measured in Vaccinia stage; calls as there; activity change (Venus), %; measured here: Venus reporter, other viral stage;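 negative = less Venus signal; first of two replicates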
# * = called active by the depositor; ? = inconclusive; . = no result given. This is a subset. The share of hits here may be higher or lower than overall.
Molecule | Vaccinia stage | Vaccinia stage Venus
CC(C)CC#Cc1ccc2c(c1)O[C@@H](CN(C)Cc1ccc(C(=O)O)cc1)[C@H](C)CN([C@@H](C)CO)S2(=O)=O | -7 | 0
CC=Cc1ccc2n(c1=O)C[C@H]1[C@H](CO)[C@@H](C(=O)NCCN3CCCCC3)N(C(C)=O)[C@@H]21 (mixture of isomers) | 3 | 1
COc1ccc(-c2cnc3c(c2)C(=O)N([C@H](C)CO)C[C@@H](C)[C@H](CN(C)C(=O)C2CCC2)O3)cc1 | 7 | 4
COc1ccc(S(=O)(=O)N(C)C[C@@H]2OCCCC[C@@H](C)Oc3ccc(NC(=O)Cc4ccccc4)cc3C(=O)N([C@@H](C)CO)C[C@H]2C)cc1 | -11 | -12
COCC(=O)N[C@@H]1C=C[C@@H](CC(=O)NCc2ccccc2OC)O[C@H]1CO | 10 | 14
C[C@H](CO)N1C[C@H](C)[C@H](CN(C)C(=O)Nc2ccc(F)cc2)Oc2c(NC(=O)CCCCCC(=O)Nc3ccccc3N)cccc2C1=O | -3 | -9
CO[C@H]1CN(C)C(=O)c2cc(NC(C)=O)ccc2OC[C@@H](C)N(Cc2nccs2)C[C@H]1C | -1 | 5
CCCC#Cc1ccc(CC[C@H]2O[C@H]3CC[C@H](CO)O[C@H]3C[C@@H]2NC(=O)CN2CCOCC2)cc1 | -9 | -13
C[C@H]1CN([C@@H](C)CO)C(=O)c2cc(-c3ccncc3)cnc2O[C@@H]1CN(C)C(=O)C1CCOCC1 | 28 | 12
Cc1ccc(S(=O)(=O)N(C)C[C@H]2OCCCC[C@@H](C)Oc3ccc(NC(=O)NC4CCCCC4)cc3C(=O)N([C@@H](C)CO)C[C@@H]2C)cc1 | -14 | -13
C[C@@H]1CN([C@H](C)CO)C(=O)c2cc(NC(=O)CCCN(C)C)ccc2O[C@H]1CN(C)Cc1ccc(Cl)c(Cl)c1 | -7 | -17
Cc1noc(C)c1S(=O)(=O)N(C)C[C@H]1OCCCC[C@H](C)Oc2ccc(NC(=O)Nc3ccccc3)cc2C(=O)N([C@H](C)CO)C[C@H]1C | 19 | 14
COC(=O)C(CC#Cc1ccc2c(c1)[C@]1(C(=O)N2)[C@H](c2ccccc2OCCO)N2[C@H](c3ccccc3)[C@H](c3ccccc3)OC(=O)[C@H]2[C@@H]1C(=O)N1CCCCCCC1)C(=O)OC | 19 | 12
CCCNC(=O)C[C@@H]1CC[C@@H]2[C@@H](COc3ccc(NC(=O)CC)cc3C(=O)N2C)O1 | -1 | 9
COc1ccccc1-c1ccc2c(c1)O[C@@H](CN(C)C(=O)c1cccnc1)[C@@H](C)CN([C@H](C)CO)S2(=O)=O | 10 | -9
CCC(=O)N(C)C[C@H]1[C@@H](c2ccc(C3=CCCC3)cc2)[C@@H](CO)N1C(=O)CC | 2 | 8
C[C@@H]1CN([C@@H](C)CO)C(=O)c2cc(C#CC3CCCCC3)cnc2O[C@H]1CN(C)C(=O)NC1CCCC1 | ? | .
COCC#Cc1cnc2c(c1)C(=O)N([C@@H](C)CO)C[C@H](C)[C@@H](CN(C)C(=O)Cc1ccncc1)O2 | 22 | 24
C[C@@H]1CN([C@@H](C)CO)C(=O)c2c(c3ccccc3n2C)-c2ccccc2CO[C@H]1CN(C)Cc1ccc(C(F)(F)F)cc1 | ? | .
C[C@H]1CCCCO[C@H](CN(C)C)[C@@H](C)CN([C@@H](C)CO)C(=O)c2cc(N(C)C)ccc2O1 | -6 | 0
CN(C[C@@H]1[C@@H](c2ccccc2)[C@H](CO)N1C(=O)c1ccccc1)C(=O)C1CC1 | 16 | 15
COc1ccc(NC(=O)N(C)C[C@H]2Oc3ccc(NC(=O)Nc4cccc5ccccc45)cc3CC(=O)N([C@@H](C)CO)C[C@@H]2C)cc1 | 12 | 12
Cc1noc(C)c1NC(=O)Nc1ccc2c(c1)C(=O)N([C@H](C)CO)C[C@H](C)[C@H](CN(C)CC1CCCCC1)OCCCC[C@H](C)O2 | 2 | -8
CCCC(=O)Nc1ccc2c(c1)OC[C@H](C)N(Cc1ccncc1)C[C@H](C)[C@H](OC)CN(C)C2=O | 9 | 9
COc1ccc(NC(=O)Nc2cccc3c2O[C@@H](CN(C)Cc2ccncc2)[C@@H](C)CN([C@@H](C)CO)C3=O)cc1 | 7 | -7

Molecule | Vaccinia stage | Vaccinia stage Venus
CCN1[C@@H]2c3ccc(-c4cccc(C(=O)N(C)C)c4)c(=O)n3C[C@@H]2[C@@H](CO)[C@@H]1C(=O)OC | 4 | 0
CS(=O)(=O)N1CC2(C1)[C@H](c1ccccc1)[C@@H](CO)N2C(=O)C1CCC1 | 14 | 8
C/C=C/c1ccc([C@@H]2[C@H](CO)N(C(=O)c3cnccn3)C23CN(C(=O)C2CC2)C3)cc1 | 10 | 9
CCNC(=O)C[C@@H]1C=C[C@H](NS(=O)(=O)c2ccc(F)cc2)[C@H](CO)O1 | 2 | 5
CCNC(=O)[C@@H]1[C@@H](CO)[C@@H]2Cn3c(ccc(C4=CCCCC4)c3=O)[C@@H]2N1Cc1ccc2c(c1)OCO2 | 2 | 0
O=C(Cc1ccccn1)NCC[C@@H]1CC[C@H](NC(=O)Nc2ccc(C(F)(F)F)cc2)[C@H](CO)O1 | -14 | -6
CN1C(=O)c2cc(NC(=O)C3CCC3)ccc2OC[C@H]2O[C@H](CC(=O)NCc3ccccc3F)CC[C@@H]21 | 17 | 3
CC(C)NC(=O)Nc1ccc2c(c1)C(=O)N([C@H](C)CO)C[C@@H](C)[C@H](CN(C)Cc1ccccc1)OCCCC[C@@H](C)O2 | -8 | -12
CC(=O)N1CC(=O)N2[C@@H](CO)[C@H](c3ccc(-c4cccc(C(=O)N(C)C)c4)cc3)[C@@H]2C1 | 28 | 6
C[C@H](CO)N1C[C@H](C)[C@H](CN(C)Cc2ccc(C(=O)O)cc2)OCCCC[C@H](C)Oc2ccc(NS(C)(=O)=O)cc2C1=O | 11 | 4
COc1ccc(S(=O)(=O)N(C)C[C@@H]2OCCCC[C@H](C)Oc3ccc(NC(=O)c4ccccc4)cc3C(=O)N([C@H](C)CO)C[C@@H]2C)cc1 | -16 | -8
COc1ccc(NC(=O)N2CC[C@@H]3[C@H]2c2cc(-c4ccc(F)cc4)ccc2N(C)[C@H]3CO)cc1 | ? | .
CC(C)NC(=O)N(C)C[C@@H]1Oc2ccc(NS(=O)(=O)c3ccccc3)cc2CC(=O)N([C@H](C)CO)C[C@@H]1C | 9 | -4
Cc1noc(C)c1S(=O)(=O)Nc1ccc2c(c1)C(=O)N([C@H](C)CO)C[C@@H](C)[C@H](CN(C)C(=O)NC1CCCCC1)OCCCC[C@@H](C)O2 | -20 | -13
CCS(=O)(=O)N1CC2(CN(C(=O)Cc3ccccn3)[C@H](CO)c3[nH]c4cc(OC)ccc4c32)C1 | -5 | 0
Cc1noc(C)c1NC(=O)N[C@H]1CC[C@H](CCNC(=O)C2CCCC2)O[C@H]1CO | -2 | 10
CO[C@H]1CN(C)C(=O)c2cc(NC(=O)Nc3cccc(F)c3)ccc2OC[C@H](C)N(C)C[C@H]1C | -16 | -2
O=C(C[C@@H]1C[C@@H]2c3cc(NC(=O)Cc4ccncc4)ccc3O[C@@H]2[C@H](CO)O1)NCc1ccc(-c2ccccc2)cc1 | 2 | 2
Cc1noc(C)c1S(=O)(=O)N(C)C[C@@H]1Oc2ccc(NS(C)(=O)=O)cc2CC(=O)N([C@@H](C)CO)C[C@@H]1C | 4 | 8
C[C@@H]1CN([C@H](C)CO)C(=O)c2cc(NC(=O)C3CCCCC3)ccc2O[C@@H](C)CCCCO[C@@H]1CN(C)Cc1ccc2c(c1)OCO2 | ? | .
CC(C)NC(=O)N(C)C[C@@H]1Oc2cc(C#C[C@H](C)O)ccc2S(=O)(=O)N([C@H](C)CO)C[C@@H]1C | 12 | 5
C[C@H](CO)N1C[C@H](C)[C@H](CN(C)S(=O)(=O)c2cn(C)cn2)Oc2ccc(NC(=O)Cn3cnnn3)cc2CC1=O | 5 | 3
COCC#Cc1ccc2c(c1)O[C@H](CN(C)S(=O)(=O)c1cccc(OC)c1)[C@H](C)CN([C@H](C)CO)S2(=O)=O | -17 | -22
CO[C@@H](CN(C)C(=O)c1ccccc1F)[C@H](C)CN([C@@H](C)CO)S(=O)(=O)c1ccc(F)cc1 | 9 | 11
C[C@@H]1CN([C@H](C)CO)C(=O)c2cccc(NS(=O)(=O)c3ccc(F)cc3)c2O[C@@H]1CN(C)Cc1ccc(-c2ccccc2)cc1 | ? | .

# Quoted at random: 2 records from the list
Molecule | Vaccinia stage | Vaccinia stage Venus
C[C@@H]1CN([C@H](C)CO)C(=O)c2cc(NC(=O)C3CCCCC3)ccc2O[C@@H](C)CCCCO[C@@H]1CN(C)Cc1ccc2c(c1)OCO2 | ? | .
CN1C(=O)c2cc(NC(=O)C3CCC3)ccc2OC[C@H]2O[C@H](CC(=O)NCc3ccccc3F)CC[C@@H]21 | 17 | 3

# (further entries)
Molecule | Vaccinia stage | Vaccinia stage Venus
C[C@H]1CN([C@@H](C)CO)C(=O)c2cc(C#Cc3ccccc3)cnc2O[C@@H]1CN(C)CC1CCOCC1 | -19 | -12
CCCN(C)C[C@@H]1Oc2cc(C#Cc3cccc(F)c3)ccc2S(=O)(=O)N([C@@H](C)CO)C[C@H]1C | -27 | -20
C[C@@H]1CN([C@@H](C)CO)C(=O)c2cccc(NC(=O)C3CCCCC3)c2O[C@H]1CN(C)Cc1ccc(C(F)(F)F)cc1 | ? | .
CCC(=O)N1CCCCN2[C@@H](CO)[C@@H](c3ccc(-c4cccc(C(=O)N(C)C)c4)cc3)[C@@H]2C1 | 22 | 4
CS(=O)(=O)Nc1ccc2c(c1)[C@H]1C[C@@H](CC(=O)N3CCc4ccccc4C3)O[C@@H](CO)[C@H]1O2 | 3 | 7
Cc1noc(C)c1NC(=O)N(C)C[C@H]1OCCCC[C@H](C)Oc2ccc(NS(=O)(=O)c3c(C)noc3C)cc2C(=O)N([C@@H](C)CO)C[C@H]1C | 10 | 10
Cc1ccc(S(=O)(=O)N(C)C[C@H]2OCCCC[C@@H](C)Oc3ccc(NC(=O)c4ccccc4)cc3C(=O)N([C@@H](C)CO)C[C@H]2C)cc1 | -17 | -5
CCCNC(=O)[C@@H]1[C@@H](CO)[C@@H]2Cn3c(ccc(-c4cccc(F)c4)c3=O)[C@H]1N2C(=O)CC | 4 | 2
CO[C@@H](CN(C)S(=O)(=O)c1ccccc1)[C@H](C)CN(C(=O)Nc1ccccc1F)[C@@H](C)CO | 14 | 10
C[C@@H]1CN([C@H](C)CO)C(=O)Cc2cc(NC(=O)Nc3ccc4c(c3)OCO4)ccc2O[C@@H]1CN(C)C(=O)Nc1ccc(C(F)(F)F)cc1 | 7 | 23
CCCNC(=O)Nc1ccc2c(c1)OC[C@H](C)N(C(=O)c1ccccc1F)C[C@@H](C)[C@H](OC)CN(C)C2=O | 1 | 4
N#C[C@H]1[C@H](c2ccc(C#CC3CCCC3)cc2)[C@H](CO)N1C(=O)Cc1ccccn1 | 6 | 9
O=C(NC[C@H]1CC[C@@H]2[C@@H](CN2S(=O)(=O)c2ccccc2[N+](=O)[O-])O1)Nc1ccccc1 | -17 | -10
CCCNC(=O)C[C@@H]1CC[C@@H]2[C@@H](COc3ccc(NS(=O)(=O)CC)cc3C(=O)N2C)O1 | 6 | 7
C[C@@H]1CCCCO[C@H](CN(C)C)[C@@H](C)CN([C@H](C)CO)C(=O)c2cc(NC(=O)Nc3cccc4ccccc34)ccc2O1 | 2 | 9
COCC(=O)Nc1ccc2c(c1)C(=O)N(C)C[C@@H](OC)[C@H](C)CN(C(=O)COC)[C@H](C)CO2 | 3 | 3
CO[C@@H]1CN(C)C(=O)c2ccc(NC(=O)C3CC3)cc2OC[C@H](C)N(Cc2ccncc2)C[C@@H]1C | 6 | 5
COc1ccc(NC(=O)N[C@@H]2CC[C@@H](CCNC(=O)CN3CCOCC3)O[C@H]2CO)cc1 | 5 | 11
CCNC(=O)[C@@H]1[C@@H](CO)[C@@H]2Cn3c(cccc3=O)[C@H]1N2C(=O)Nc1cc(F)ccc1F | 14 | 5
Cc1noc(C)c1S(=O)(=O)N(C)C[C@H]1OCCCC[C@H](C)Oc2ccc(NS(C)(=O)=O)cc2C(=O)N([C@H](C)CO)C[C@@H]1C | 22 | 4
C[C@@H]1CN([C@H](C)CO)C(=O)Cc2cc(NC(=O)Nc3ccc(F)cc3)ccc2O[C@@H]1CN(C)Cc1ccc2c(c1)OCO2 | -12 | -21
C[C@@H]1CN([C@H](C)CO)C(=O)c2cc(NC(=O)CCC(F)(F)F)ccc2O[C@H]1CN(C)S(=O)(=O)c1cn(C)cn1 | -8 | -1

# Copied from the list.
# In Vaccinia stage, C[C@@H]1CN([C@H](C)CO)C(=O)Cc2cc(NC(=O)Nc3ccc4c(c3)OCO4)ccc2O[C@@H]1CN(C)C(=O)Nc1ccc(C(F)(F)F)cc1 reads 7
# In Vaccinia stage Venus, CCCNC(=O)[C@@H]1[C@@H](CO)[C@@H]2Cn3c(ccc(-c4cccc(F)c4)c3=O)[C@H]1N2C(=O)CC reads 2
# In Vaccinia stage, CCCNC(=O)Nc1ccc2c(c1)OC[C@H](C)N(C(=O)c1ccccc1F)C[C@@H](C)[C@H](OC)CN(C)C2=O reads 1
# In Vaccinia stage, Cc1ccc(S(=O)(=O)N(C)C[C@H]2OCCCC[C@@H](C)Oc3ccc(NC(=O)c4ccccc4)cc3C(=O)N([C@@H](C)CO)C[C@H]2C)cc1 reads -17

# Entries of single compounds as entered above. Screens in order: Vaccinia stage, Vaccinia stage Venus
# Listed for Cc1noc(C)c1S(=O)(=O)N(C)C[C@H]1OCCCC[C@H](C)Oc2ccc(NS(C)(=O)=O)cc2C(=O)N([C@H](C)CO)C[C@@H]1C : 22, 4
# Listed for CCCN(C)C[C@@H]1Oc2cc(C#Cc3cccc(F)c3)ccc2S(=O)(=O)N([C@@H](C)CO)C[C@H]1C : -27, -20
# Listed for C[C@@H]1CN([C@H](C)CO)C(=O)Cc2cc(NC(=O)Nc3ccc(F)cc3)ccc2O[C@@H]1CN(C)Cc1ccc2c(c1)OCO2 : -12, -21
